Ecoli growth – E. coli growth inhibition, primary screen, OD600; Escherichia coli growth, 23 h; active compounds read low; OD600 absorbance (no concentration beside the values); 0.21% of 330,000 active; AID 1053175, 2014;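 active = OD600 absorbance below the run mean of sample wells minus 3.6 SD, in any replicate, cut at about 0.56 in these data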;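 note: stock transfer was 300 nL into about 60 µL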
HNF4A DNA FP – change in binding of human HNF4A to DNA, primary screen, biochemical, fluorescence polarization, FITC-DNA; Hepatocyte nuclear factor 4-alpha (Homo sapiens), P41235; 1 h; activity change, % at 10 µM; 0.3% of 360,000 active; in the data active = activity change above about 30%, passing the limit was not always enough;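 note: controls were the assay level and a saturating level of protein; the project sought stronger binding though the title names inhibitors; some compounds called inactive have numbers as strong as hits; positive values seem to mean higher polarization but the record does not say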
Target sequence (P41235 whole entry, looked up): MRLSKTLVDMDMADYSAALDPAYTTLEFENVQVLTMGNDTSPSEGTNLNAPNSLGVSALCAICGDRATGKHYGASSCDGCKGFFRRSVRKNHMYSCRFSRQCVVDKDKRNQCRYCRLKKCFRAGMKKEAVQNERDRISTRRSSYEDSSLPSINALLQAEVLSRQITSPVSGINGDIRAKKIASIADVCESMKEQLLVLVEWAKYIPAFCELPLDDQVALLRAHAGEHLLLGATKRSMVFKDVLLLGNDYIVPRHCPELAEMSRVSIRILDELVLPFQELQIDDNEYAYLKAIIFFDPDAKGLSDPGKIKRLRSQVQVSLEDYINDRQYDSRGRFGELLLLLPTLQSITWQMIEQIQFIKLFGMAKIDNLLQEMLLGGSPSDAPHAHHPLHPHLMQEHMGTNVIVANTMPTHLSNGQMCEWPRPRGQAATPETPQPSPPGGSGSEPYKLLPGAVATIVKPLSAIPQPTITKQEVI
LANA-H2B inh – blockers of LANA interaction with H2A/H2B – biochemical, FP readout, HTS, primary screen; Protein LANA1 (Human herpesvirus 8 type P (isolate GK18)), Q9QR71; cell-free LANA-H2A/H2B peptide, fluorescence polarization; inhibition, % (test concentration not listed); 0.6% of 320,000 active; AID 2629, 2010; in the data active = inhibition mostly above about 10%, no sharp cut-off; inactive = mostly below about 6.7%;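 note: stock transfer was 7.5 nL into about 10 µL; 0% = median of vehicle wells and 100% = median of positive control wells; one replicate is shown; the record names a cut of 25% in any replicate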
Vif A3G – inhibitors of Vif binding to APOBEC3G peptide, primary screen, biochemical, TR-FRET, GST-Vif 1-94, biotin-A3G peptide, dose response retest (AID 1117319) | TR-FRET GST-Vif / biotin-A3G peptide binding; higher % means a stronger effect; test concentration not given here; strong numbers were not always called active | inhibition, %; hits with a dose series show IC50 in µM | 0.57% of 260,000 active;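 active = above the screen mean plus three standard deviations and confirmed in dose response; inconclusive = results disagree or hit not tested in dose response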;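 note: Vif residues 1-94 fused to GST binding biotinylated APOBEC3G peptide 110-148; 0% = full assay without inhibitor and 100% = GST in place of GST-Vif; retest series ran down from 100 µM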
UCH37 DUB inh – inhibitors of human UCH37 deubiquitinase, primary screen, biochemical, Ub-AMC cleavage, fluorescence; Ubiquitin carboxyl-terminal hydrolase isozyme L5 (Homo sapiens), Q9Y5K5; purified proteasome/UCH37; inhibition, % (concentration not given with the values); 0.33% of 330,000 active;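 active = mean of two replicates above 20%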;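 note: 0% = compound-free wells with enzyme and 100% = wells lacking proteasome; stock transfer was 100 nL into about 20 µL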
Target sequence (Q9Y5K5 whole entry, looked up): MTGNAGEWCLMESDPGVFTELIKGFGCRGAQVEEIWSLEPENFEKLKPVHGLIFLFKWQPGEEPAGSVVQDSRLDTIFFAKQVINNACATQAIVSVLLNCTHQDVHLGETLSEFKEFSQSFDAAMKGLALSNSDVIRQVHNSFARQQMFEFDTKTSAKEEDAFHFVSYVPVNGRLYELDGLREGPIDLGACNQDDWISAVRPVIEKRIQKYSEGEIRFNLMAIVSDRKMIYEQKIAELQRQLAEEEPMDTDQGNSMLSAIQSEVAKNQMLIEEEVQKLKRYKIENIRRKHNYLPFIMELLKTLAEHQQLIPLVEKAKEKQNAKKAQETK
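Signal – fluorescence, ex 355 nm, em 460 nm · System – Proteasome-bound UCH37 · Input – 0.15 nM proteasome as dispensed · Timing – 30 min preincubation with enzyme, 25 min cleavage at room temperature · Read-out basis – percent inhibition of cleavage signal versus uninhibited and no-proteasome wells · Medium – Tris-HCl pH 7.4 with ATP-MgCl2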
A1 inh – caspase 3/7 activation in MEF A1-2A-BIM cells, primary screen, A1 inhibitor project, cell-based, luminescence, HTS. Caspase-Glo 3/7 luminescence, 3 h; percent of clofoctol response, vehicle zero. caspase activation, % (test concentration not listed). 0.066% of 330,000 active;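 active = over half of replicate activation scores above 10%, or exactly half above 10 with the replicate mean above 10; inconclusive = replicate mean below 10 yet half the replicates above 10; inactive = over half of replicates below 10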;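 note: wells of about 30 µL received 50 nL stock; many hits fall short of the cut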
B2AR ag – beta2AR agonists driving receptor internalization, primary screen, cell-based, FAP fluorogen, flow cytometry; Beta-2 adrenergic receptor (Homo sapiens), P07550; Am2.2-beta2AR cells; reference of the scale not given here; response, % (test concentration not listed); 0.43% of 340,000 active; AID 504454, 2011;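 active = response above a set limit, near 3 SD of response in nonfluorescent compounds, cut at about 42% in these data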;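 note: stock transfer was 100 nL into about 11 µL; a reference agonist was the positive control; negative values mostly stem from fluorescent compounds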
* hit, by the source's call; ? = inconclusive; . = not tested or not shown; & = joins results of further samples.

SMILES | Ecoli growth | HNF4A DNA FP | LANA-H2B inh | Vif A3G | UCH37 DUB inh | A1 inh | B2AR ag
Cc1cc(N(C)C)c(C#N)c(=O)[nH]1 | 0.757 | -2.9 | 0.6 | -7.4% | -1.9 | 2.3 | -1.2
O=C(CCc1ccc(S(=O)(=O)NC2CCCCC2)cc1)N(Cc1ccccc1)Cc1ccccc1 | 0.727 | -5.5 | -4.9 | -7.0% | 32.6* | 0.5 | 4.5
C[C@@H](c1ccccc1)N1Cc2ccccc2Oc2cc(Br)ccc2S1(=O)=O | 0.732 | 2.9 | . | -9.0% | -0.3 | . | 4.8
Cc1ccc(CC(=O)NC(C)CCc2ccccc2)cc1 (stereo unspecified) | 0.732 | 1.6 | 2.9 | 4.6% | 1.2 | 0.4 | -5.7
CCOC(=O)c1cnc2c(C)cccc2c1NCCc1ccc(OC)c(OC)c1 | 0.712 | 2.3 | -3.4 | -7.7% | -3.8 | 1.0 | -7.4
Cc1nc2ccccc2c2oc(C(=O)Nc3ccc4c(c3)OCCO4)cc12 | 0.683 | 9.7 | 6.3 | ? | -123.2 | 0.0 | -3.2
CC(C)(C)OC(=O)CN1C(=O)C(Sc2n[nH]c(-c3ccccc3)n2)CCc2ccccc21 (stereo unspecified) | 0.686 | -0.4 | 0.4 | 29.5% | 0.9 | 0.4 | -19.8
Cc1cccc(C)c1OCc1nnc(SCC(=O)Nc2cccc(C(=O)N3CCOCC3)c2)n1C | 0.665 | 0.5 | -3.8 | -3.3% | 2.4 | 0.1 | -11.6
CCN(C1CCCCC1)S(=O)(=O)c1ccc(S(=O)(=O)NCCc2ccncc2)cc1 | 0.729 | 2.0 | 8.3 | 3.5% | 2.1 | 0.2 | 6.5
COC(=O)[C@H](CC(C)C)NS(=O)(=O)N[C@@H](CC(C)C)C(=O)OC | 0.762 | -2.1 | 4.2 | . | 2.1 | 2.0 | 1.2
CCN(CCNC(=O)Cn1cc2c(n1)CCCC2)c1ccccc1 | 0.724 | -0.5 | -5.7 | -0.9% | -0.3 | 0.5 | 5.5
CCCc1ccc(S(=O)(=O)N/N=C\c2ccc3c(c2)OCO3)cc1 | . | -0.1 | -9.3 | . | . | -0.9 | 0.3
O=C(N/N=C/c1ccc2c(c1)OCO2)C(=O)N1CCCC1 | . | -4.3 | 2.2 | -5.4% | . | -1.0 | 3.3
Cc1ccc2nc(N(CCCN(C)C)C(=O)c3ccc(S(=O)(=O)N4CCc5ccccc5C4)cc3)sc2c1 | . | -1.3 | -6.9 | . | . | 3.9 | 17.5
N#Cc1cccc(S(=O)(=O)NCc2nnc3ccccn23)c1 | 0.698 | -4.9 | 1.4 | -10.2% | 5.3 | 0.4 | -2.8
COCCOn1c(SCCOC)nc2ccccc2c1=O | 0.612 | -0.5 | -5.0 | -12.9% | 3.1 | 2.2 | 4.3
CCn1c(O)c(N=NC(=S)NCC2CCCO2)c2ccccc21 (stereo unspecified) | 0.648 | -6.4 | 2.8 | 0.3% | 9.3 | -0.8 | -7.8
O=C1c2cccnc2C(=O)N1c1cccc([N+](=O)[O-])c1 | 0.644 | -2.0 | -4.9 | 0.0% | 2.9 | -0.4 | -4.1
COc1ccc(CN(C)S(=O)(=O)c2nnc(NC(=O)c3ccccc3Br)s2)cc1 | 0.624 | -2.1 | 4.6 | . | 1.8 | -1.1 | 1.7
Cc1cccc(C#N)c1NC1=CC(=O)CC(C)(C)C1 | 0.756 | -1.4 | -0.8 | 5.2% | 1.6 | 0.4 | -3.2
CCN(C(=O)c1cnc2scc(C)n2c1=O)c1ccccc1C | 0.781 | -1.9 | -1.1 | 10.2% | 7.0 | 0.9 | 24.2
CC1CCN(C(=O)C2CCN(S(=O)(=O)c3cccs3)CC2)CC1 | 0.627 | 3.7 | -0.1 | . | -1.0 | 0.2 | -0.2
N=C(N)c1ccc(Cl)cc1 | 0.682 | -0.6 | -1.6 | -5.3% | 2.0 | 0.2 | 0.2
CCN(CC)S(=O)(=O)c1ccc2c(c1)C(=NO)c1cc(S(=O)(=O)N(CC)CC)ccc1-2 | 0.657 | 3.8 | -0.4 | -0.8% | -33.8 | -0.2 | 16.8
COc1ccc2nc(C)c3cc(C)oc3c2c1 | 0.669 | 0.8 | -8.8 | 7.8% | -2.7 | 1.1 | 5.6
O=C(Nc1ccc(N2CCN(C(=O)c3cccs3)CC2)c(Cl)c1)c1ccco1 | 0.689 | -1.2 | 1.2 | -2.0% | 1.1 | -0.2 | -6.3
N=c1c2ccccc2nc2n1CCCCCCCCCCC2 | 0.679 | 0.2 | -0.6 | . | 4.6 | 0.0 | -8.1
CCn1c(SCC(=O)Nc2ccc3c(c2)c2ccccc2n3CC)nnc1-c1cnccn1 | 0.683 | 6.6 | -0.2 | ? | -20.8 | 1.0 | 24.1
CCn1ccnc1CN(C)C(=O)c1cc(COc2ccc(Cl)cc2OC)on1 | 0.689 | 4.6 | -2.5 | -0.3% | 0.2 | 0.4 | -9.6
O=C(Nc1ccc(Cl)cc1)c1ccsn1 | 0.755 | -0.9 | -4.0 | 0.7% | 8.4 | -3.9 | 5.0
Cc1c(CC(=O)NCC(=O)O)c(=O)oc2cc3occ(-c4ccccc4)c3cc12 | 0.595 | 0.7 | -3.3 | 0.4% | -12.1 | 1.4 | -32.4
COc1ccc(CNC(=O)CN2C(=O)COc3ccc(S(=O)(=O)N4CCOCC4)cc32)cc1 | 0.657 | 2.8 | 2.0 | . | -1.1 | 2.1 | 0.8
COc1ccccc1NC(=S)N1CC(C)(C)C1=O | 0.646 | 0.1 | 1.2 | -5.2% | 3.1 | -0.5 | -5.7
CCc1ccc(CN(C)C(=O)c2cc(COc3c(F)cccc3F)on2)cc1 | 0.697 | 1.9 | -1.3 | -4.7% | 4.9 | -0.6 | 19.4
O=C(c1ccncc1)N(Cc1cc2ccccc2[nH]c1=O)C1CCCCC1 | 0.671 | 1.9 | -0.5 | -5.1% | 1.9 | 0.4 | -7.4
CNC(=O)c1c(NC(=O)c2ccco2)sc(C)c1C | 0.662 | 1.9 | . | 9.3% | 5.6 | 0.2 | -2.1
CCC(C#CCN1CCOCC1)(CC)OCCC#N | 0.761 | -1.4 | 0.9 | -0.3% | 1.7 | -0.1 | 1.2
Cc1cccc(NC(=O)c2ccc(S(=O)(=O)N(C)C)cc2)n1 | 0.744 | 2.1 | 5.0 | -7.8%&14.8% | 1.0 | -2.2 | 10.9
N#CC1C=Cc2ccccc2N1C(=O)c1ccccc1 (stereo unspecified) | 0.721 | 4.1 | -0.7 | -4.0% | -2.2 | -0.2 | 10.5
Cc1ccc(C(=O)NCC(=O)OCc2csc(-c3ccccc3)n2)cc1 | 0.697 | 0.6 | 0.5 | . | 3.1 | -0.6 | 3.6

Reformatted: 2 of the compounds above.
molecule	Ecoli growth	HNF4A DNA FP	LANA-H2B inh	Vif A3G	UCH37 DUB inh	A1 inh	B2AR ag
COc1ccc2nc(C)c3cc(C)oc3c2c1	0.669	0.8	-8.8	7.8%	-2.7	1.1	5.6
O=C(Nc1ccc(N2CCN(C(=O)c3cccs3)CC2)c(Cl)c1)c1ccco1	0.689	-1.2	1.2	-2.0%	1.1	-0.2	-6.3

Later entries.
SMILES | Ecoli growth | HNF4A DNA FP | LANA-H2B inh | Vif A3G | UCH37 DUB inh | A1 inh | B2AR ag
O=C(O)c1cccnc1Sc1ccc(Br)cc1 | 0.663 | -3.5 | -1.4 | . | 3.2 | 0.0 | 4.6
CCOC(=O)Cn1nc(Cc2ccccc2)c2ccccc2c1=O | 0.73 | -0.5 | -3.3 | 10.2% | 2.8 | 0.6 | 25.9
O=C(CNc1cccc(C(F)(F)F)c1)Nc1cccc(S(=O)(=O)N2CCCC2)c1 | 0.627 | -1.8 | 3.1 | -6.0% | 1.7 | 0.3 | 0.4
O=C(O)c1cnn2c(C(F)(F)F)cc(-c3ccco3)nc12 | 0.707 | -8.7 | 3.6 | 23.0% | 3.9 | -0.1 | 0.1
CCOCCCNC(=O)C1CCN(Cc2cccc(OCc3ccccc3)c2)CC1 | 0.648 | 3.8 | 1.5 | . | 5.3 | 0.4 | -0.6
Cn1c(C(=O)N2CCN(c3ccc([N+](=O)[O-])cc3)CC2)cc2c(=O)[nH]c3ccccc3c21 | 0.69 | 3.2 | . | -5.9% | 5.7 | . | -1.2
CCOc1ccccc1NC(=O)N1CCC(c2nc3ccc(C)cc3[nH]2)CC1 | 0.707 | -2.0 | -3.3 | 7.5% | 4.0 | 0.9 | -5.1
CCOC(=O)c1cc(OCC(=O)NC(C)C(C)C)cc(C(=O)OCC)c1 (stereo unspecified) | 0.695 | 0.4 | -2.4 | 3.1% | 2.6 | 0.0 | 5.1
CCC(Cc1ccccc1)NC(=O)CCn1cccc1 (stereo unspecified) | 0.693 | -3.1 | 2.1 | 2.5% | -0.2 | 0.5 | 4.9
COc1ccc(CNC(=O)C(=O)NCC2OCCN2S(=O)(=O)c2ccccc2)cc1 (stereo unspecified) | 0.743 | 2.2 | 7.6 | -4.3% | 1.6 | 1.5 | -2.3
COc1cccc2c1OC1(C)CC2N(C(=O)c2ccco2)C(=S)N1c1ccc(F)cc1 (stereo unspecified) | 0.72 | 4.7 | 8.1 | -3.9% | 0.9 | 0.5 | 8.1
COCCN(C(=O)COC(=O)CCOc1cc(C)ccc1C)c1c(N)n(Cc2ccccc2)c(=O)[nH]c1=O | 0.69 | -0.7 | . | . | 2.2 | . | .
COc1cccc(CNC(=O)CCN2C(=S)NC(C)(C)CC2C)c1 (stereo unspecified) | 0.722 | 2.9 | -3.2 | ? | 1.2 | -0.6 | -3.4
O=C(COc1ccc([N+](=O)[O-])cc1)Nc1cccc2nsnc12 | 0.683 | 26.6 | 7.5 | 1.2% | -23.4 | 0.8 | 8.3
COc1ccccc1C(=O)NC(=O)COC(=O)c1cc[n+]([O-])cc1 | 0.632 | 3.0 | -1.8 | -1.8% | 1.1 | -0.2 | -7.5
Nc1c(C(=O)N/N=C/c2ccc(F)cc2)oc2nc(-c3ccccc3)cc(-c3ccco3)c12 | . | 32.8 | -5.1 | 12.2% | . | -0.4 | -1.6
COCCCNC(=S)NNC(=O)c1csc2ccccc12 | 0.718 | -4.1 | -2.1 | . | 0.5 | 0.2 | -1.0
O=C1Nc2ccccc2N2CCCC12 (stereo unspecified) | . | . | -5.4 | -3.1% | . | 1.5 | .
CCOC(=O)c1[nH]c2cc(OC)c(OC)cc2c1NC(=O)C(C)N1CCN(Cc2ccccc2)CC1 (stereo unspecified) | 0.718 | -0.3 | -2.3 | -5.3% | -121.2 | 0.7 | 8.5
Cc1nn(-c2ccccc2)c(N)c1N=Nc1cccnc1 | 0.621 | -2.5 | -0.1 | -6.8% | 11.9 | 0.5 | -5.0
CCCC(=O)N(Cc1cc2ccccc2[nH]c1=O)c1ccccc1OC | 0.685 | 4.0 | 4.9 | -2.1% | -0.8 | -0.2 | 10.5
CC(=O)N1c2ccccc2Sc2ccccc21 | 0.668 | -1.7 | -3.4 | . | 2.0 | 1.3 | 9.5
Cc1ccc(-c2nnc(NC(=O)c3ccc([N+](=O)[O-])o3)o2)c(C)c1 | 0.614 | 0.1 | . | 8.2% | 14.3 | 0.6 | 8.0
CN(C)CC#CCOC(c1ccccc1)c1ccccc1 | 0.705 | 2.0 | . | . | -1.1 | 0.6 | 4.1

From PubChem BioAssay
